# Yeast UUG start: modulators of start codon recognition fidelity in yeast. S. cerevisiae UUG-firefly luciferase reporter, luminescence/redox ratio. activity score, % at 18.7 µM. actives 0.13% (n = 350,000);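 active = replicate mean at a twofold rise or more, about +100% in these data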;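 note: firefly luciferase made from a UUG start codon reports start codon fidelity; reporter light over untreated wells divided by growth signal over untreated wells; some hits fall short of that in this replicate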
# CSC inhib: blocks cancer stem cells; cancer stem cell-like cells viability, luminescence; inhibition, % at 7.5 µM; actives 1.1% (n = 300,000); AID 2717;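 active = mean at 75% or more and at least half the replicates too; tested in HMLE shEcad cells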;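 note: 0% = median of negative and 100% = median of positive control wells; the first replicate is given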
# eIF4H FP inh: inhibitors of RNA binding by human eIF4H. Q15056. eIF4H fluorescence polarization binding assay. inhibition, % at 35 µM. actives 0.94% (n = 290,000). AID 2012;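 active = 50% or more with normal probe brightness, or confirmed in later tests; about a fifth of its hits are not listed in these tables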;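 note: calls also rest on retests at 20 µM and on dose response follow-up; 0% = protein and probe with vehicle and 100% = probe without protein; strong numbers were not always called active; many hits fall short of the cut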
# Rce1 inh: yeast Ras-converting enzyme inhibition; AID 2563; yeast membranes, quenched prenylated peptide cleavage fluorescence; Q03530; calls only; actives 0.27% (n = 290,000);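 active = fall in fluorescence gain of 50% or more versus controls, with final raw signal at or below 3038400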;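 note: plate controls were neutral control wells for no effect and wells lacking membranes for full effect; tested at 10 µM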
# Target sequence (Q03530 whole entry, looked up): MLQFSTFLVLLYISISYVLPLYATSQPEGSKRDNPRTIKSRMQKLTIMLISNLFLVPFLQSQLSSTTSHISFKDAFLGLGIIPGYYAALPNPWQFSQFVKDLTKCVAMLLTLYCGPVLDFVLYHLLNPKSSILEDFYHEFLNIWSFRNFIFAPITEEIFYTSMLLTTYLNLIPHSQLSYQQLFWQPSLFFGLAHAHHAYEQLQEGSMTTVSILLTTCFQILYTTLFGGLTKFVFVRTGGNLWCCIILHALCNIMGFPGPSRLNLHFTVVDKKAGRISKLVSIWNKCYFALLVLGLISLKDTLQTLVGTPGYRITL
# PABP FP inh: blocks human PABP binding to poly(A) RNA. actives 1% (n = 290,000). inhibition, % at 35 µM. fluorescence polarization. P11940. AID 2014;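 active = 50% or more with normal probe brightness, or confirmed in later tests; about a fifth of its hits are not listed in these tables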;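 note: calls also rest on retests at 20 µM and on dose response follow-up; controls were probe without protein and protein plus probe with vehicle; some compounds called inactive have numbers as strong as hits; many hits fall short of the cut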
# Target sequence (P11940 whole entry, looked up): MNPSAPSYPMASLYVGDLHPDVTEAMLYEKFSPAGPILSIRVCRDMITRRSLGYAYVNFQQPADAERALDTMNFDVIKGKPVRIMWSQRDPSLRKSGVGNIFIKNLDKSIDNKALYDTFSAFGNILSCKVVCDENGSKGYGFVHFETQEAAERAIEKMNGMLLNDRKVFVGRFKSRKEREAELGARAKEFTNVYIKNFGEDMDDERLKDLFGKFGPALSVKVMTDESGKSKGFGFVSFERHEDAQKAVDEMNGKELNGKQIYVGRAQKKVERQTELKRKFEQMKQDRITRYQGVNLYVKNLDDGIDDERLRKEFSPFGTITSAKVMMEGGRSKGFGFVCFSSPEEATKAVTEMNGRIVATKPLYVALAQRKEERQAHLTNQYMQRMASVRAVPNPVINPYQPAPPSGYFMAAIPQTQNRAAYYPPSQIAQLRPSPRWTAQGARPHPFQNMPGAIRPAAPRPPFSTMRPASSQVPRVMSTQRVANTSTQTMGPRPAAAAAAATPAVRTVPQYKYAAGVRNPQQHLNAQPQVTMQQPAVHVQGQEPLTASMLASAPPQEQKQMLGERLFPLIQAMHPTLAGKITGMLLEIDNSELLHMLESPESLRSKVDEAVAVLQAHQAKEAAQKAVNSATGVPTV
# Env fusion inh: blocks HIV Env-driven cell-cell fusion | HeLa-JRFL Env/CEM21 cell fusion, luciferase | inhibition, % at 12.3 µM | actives 1.1% (n = 360,000);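 active = mean replicate inhibition score of at least 50 and every replicate individually at or above 50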;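 note: 0% = plate neutral controls and 100% = maraviroc near 300 nM; one replicate is shown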
# MT1-MMP act inh: inhibitors of human MT1-MMP activation | P50281 | HT1080 RFP-PRO-GFP cells, GFP/RFP ratio fluorescence, overnight; percent of plate control window, DMSO zero | GFP/RFP ratio change, % at 20 µM | actives 0.061% (n = 360,000);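 active = GFP/RFP ratio change of at least 30% with cell ATP level not reduced by more than half and red fluorescence within 50% of control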; note: strong numbers were not always called active
#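 Assay system: HT1080 RFP-PRO-GFP cells | Dosing: 20 µM single dose, 1% DMSO | Incubation: Cells overnight before dosing, compound overnight, 37 °C, 5% CO2 | Evaluation: GFP/RFP fluorescence ratio | Control set: DMSO-only wells and HT1080 RFP-L50D-GFP cell wells as references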
# eIF4H FP inh retest: second read-out of eIF4H FP inh, no call of its own (marks repeat the call); inhibition, %; compound at 20 µM; confirmation average;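 mean of two retest wells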
# PABP FP inh retest: also measured in PABP FP inh; calls as there; inhibition, %; compound at 20 µM; confirmation repeats;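 mean of two retest wells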
# MT1-MMP act inh RFP: second read-out of MT1-MMP act inh, no call of its own (marks repeat the call); RFP signal change, %; measured here: RFP expression control read;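 0 = vehicle wells; hits needed this value within 50% of zero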
# * hit, by the source's call; i = inactive; . = no result given. These rows are one share of the data, so the mix of outcomes need not match the whole.
# The first two records, ahead of the listing:
SMILES,Yeast UUG start,CSC inhib,eIF4H FP inh,Rce1 inh,PABP FP inh,Env fusion inh,MT1-MMP act inh,MT1-MMP act inh RFP,others
CCn1cc(CN2CCCC(C(=O)Nc3cccc(-c4cc5ccccc5[nH]4)c3)C2)c(C)n1 (stereo not drawn),3,6,-12,i,-5,.,3,3,
C/C(CCc1oc2ccccc2c1-c1ccc(C)o1)=N/O,-42,8,8,i,4,.,-4,-4,

# All compounds of this part, repeating the preview:
SMILES,Yeast UUG start,CSC inhib,eIF4H FP inh,Rce1 inh,PABP FP inh,Env fusion inh,MT1-MMP act inh,MT1-MMP act inh RFP,others
CCn1cc(CN2CCCC(C(=O)Nc3cccc(-c4cc5ccccc5[nH]4)c3)C2)c(C)n1 (stereo not drawn),3,6,-12,i,-5,.,3,3,
C/C(CCc1oc2ccccc2c1-c1ccc(C)o1)=N/O,-42,8,8,i,4,.,-4,-4,
COc1cc(C)c(Cl)cc1S(=O)(=O)N(C)C,-21,-2,-1,i,-8,.,-1,2,
C=CCSc1nnc(NC(=O)c2cn(CC)c3nc(C)ccc3c2=O)s1,.,0,49,i,53*,19,-5,2,
CC(C)(C)c1ccc(C(=O)N/C(=C\c2cccs2)C(=O)N2CCOCC2)cc1,-5,.,-2,i,8,4,2,0,
CCC(CC)C(=O)NCc1ccc(OC)cc1,-9,-3,-11,i,-23,-9,3,3,
C=CCC1(NCc2ccco2)CCN(CC)CC1,.,-7,8,i,12,-39,2,3,
COc1cc(-c2cc(C(=O)Nc3ccc(S(=O)(=O)NCc4ccco4)cc3)c3ccccc3n2)cc(OC)c1OC,-11,17,6,i,25,-14,-9,-13,
COCCCn1c(SCC(=O)OC2CCCCC2)nnc1-c1ccco1,.,1,16,i,7,.,6,3,
COc1ccc(C(NC(=O)C2CCN(CCOc3ccc(Cl)cc3)CC2)c2cccs2)cc1 (stereo not drawn),5,.,.,.,.,8,2,-8,
COCCN(C(=O)CSc1nnc(-c2cccc(F)c2)n1N)c1c(N)n(Cc2ccccc2)c(=O)[nH]c1=O,-6,-5,.,.,.,.,3,1,
COc1cc(NS(=O)(=O)c2ccc(NC(=S)NC(=O)C3CCCC3)cc2)nc(OC)n1,-3,-1,1,i,28,-60,5,2,
OCCNCCCCSc1ccc(Cl)cc1,.,-5,6,i,-4,-5,-3,0,
CCC(=O)Nc1ccc(C(=O)n2ccc(C)n2)cc1,-5,2,2,i,2,.,10,13,
Cn1cccc1/C=N/NC(=O)c1ccco1,.,-2,-3,i,-12,-19,1,2,
O=C(Nc1ccc(Br)cc1)C1C2C=CC3(O2)C1C(=O)N(CCN1CCOCC1)C3C(=O)NC1CCCCC1 (stereo not drawn),-8,-16,6,.,-10,2,-1,0,
COC(=O)c1[nH]c(C)c(/C(O)=C2\C(=O)C(=O)N(CCN(C)C)C2c2cc(OC)ccc2OC)c1C (stereo not drawn),-8,8,2,i,-7,.,-1,1,
CC1CC(C)(C)NC(=S)N1CCC(=O)NCc1ccc(F)cc1 (stereo not drawn),.,-13,-1,i,-2,4,2,4,
O=C(OCn1ncc(Cl)c(Cl)c1=O)c1ccc(C(F)(F)F)cc1,-6,.,-6,i,-6,i,-3,-8,
O=C(COC(=O)c1ccc(O)cc1)NC1CCCCCCC1,-11,.,.,.,.,-2,4,-2,
CCCCn1c(N)c(N(CC(C)C)C(=O)c2ccc(S(=O)(=O)N3CCCCC3)cc2)c(=O)[nH]c1=O,-4,5,.,i,.,28,-1,1,
COc1ccc(NC(=O)Cn2ncn3nc(-c4ccc(OC)cc4)cc3c2=O)cc1,-26,1,-7,i,4,-14,3,-2,
CC(C)NS(=O)(=O)c1ccc(NC(=O)C2CCCCC2)cc1,-11,-11,-5,i,0,-4,4,2,
C=CC[C@@H](CC(=O)N(CCO)Cc1ccccc1)C(=O)NC[C@@H](OC(=O)[C@@H](CC=C)CC(=O)OC(C)(C)C)c1ccccc1,18,-5,.,.,.,0,-15,-13,
Cc1ccc(NC(=O)c2cccs2)cc1NC(=O)c1ccccc1Cl,-11,-10,-7,i,51,11,5,3,eIF4H FP inh retest=-4;PABP FP inh retest=8
O=C(CN(Cc1ccccc1)S(=O)(=O)c1ccccc1)NC1CC1,.,-11,5,i,10,.,1,1,
Cc1ccccc1CN1C(=O)C(C)S/C1=N/N=C/c1ccco1 (stereo not drawn),.,4,-3,i,3,6,-2,-2,
CCCc1cc(Nc2cccc(OC)c2)n2ncnc2n1,-20,-12,-10,i,-6,14,-4,4,
CCOC(=O)C1=C(COC(=O)c2ncc(Cl)c(Cl)c2Cl)NC(=O)NC1C (stereo not drawn),-13,-8,.,i,.,1,7,6,
COc1cc(/C=N/Nc2nc3ccccc3s2)ccc1O,-12,33,-1,.,2,-87,4,-5,
COc1ccc(S(=O)(=O)N2CCC(C(=O)N3CCOCC3)CC2)cc1Cl,-7,5,12,.,7,-8,2,5,
COc1cc(-c2cc3nc4ccccc4n3c(N)c2C#N)cc(OC)c1OC,.,26,-6,i,-4,17,2,8,
CC(C)=C(NC(=O)c1ccccc1)C(=O)Nc1cccc(C)c1,-2,-7,-1,i,5,-28,0,3,
Cc1nn(C(=O)N2CCOCC2)c(C)c1C,-7,-17,-8,i,-5,-15,2,2,
COc1nc(-c2ccccc2)nc(C)c1CC(=O)O,-14,-5,-6,i,1,-9,-2,0,
N#Cc1ccccc1Cn1c(-c2cscn2)nc2ccccc21,-14,0,-2,i,0,-35,-1,-4,
Cn1c(=O)c(C(=O)Nc2ccccc2S(N)(=O)=O)c(O)c2ccccc21,-1,-6,-6,i,5,-17,0,-3,
COc1cc(CNCCO)ccc1OCC(=O)Nc1ccc(Br)cc1,-8,1,-13,i,-10,10,3,-3,
CN(C)S(=O)(=O)c1cc(NC(=O)COC(=O)c2nc(Cl)ccc2Cl)ccc1Cl,-29,12,.,.,.,4,-2,2,
COc1cc(N2CCCC2)c(OC)cc1/C=C(/C#N)c1ccc(Br)cc1,-22,7,127,i,120,-27,-265,-8,eIF4H FP inh retest=0;PABP FP inh retest=11

# Among those listed so far, these contain a tert-butyl group.
SMILES,Yeast UUG start,CSC inhib,eIF4H FP inh,Rce1 inh,PABP FP inh,Env fusion inh,MT1-MMP act inh,MT1-MMP act inh RFP,others
CC(C)(C)c1ccc(C(=O)N/C(=C\c2cccs2)C(=O)N2CCOCC2)cc1,-5,.,-2,i,8,4,2,0,
C=CC[C@@H](CC(=O)N(CCO)Cc1ccccc1)C(=O)NC[C@@H](OC(=O)[C@@H](CC=C)CC(=O)OC(C)(C)C)c1ccccc1,18,-5,.,.,.,0,-15,-13,

# The results go on:
SMILES,Yeast UUG start,CSC inhib,eIF4H FP inh,Rce1 inh,PABP FP inh,Env fusion inh,MT1-MMP act inh,MT1-MMP act inh RFP,others
O=C(Nc1cccc(C(F)(F)F)c1)Nc1ccc2[nH]c(=O)[nH]c2c1,-21,-6,-4,i,2,11,4,0,
O=S(=O)(N/N=C/c1ccccc1F)c1ccccc1,.,7,7,.,9,-7,0,3,
COc1ccc(-c2nn(-c3ccccc3)cc2/C=C/C(=O)OCC(=O)Nc2ccccc2C#N)cc1,.,10,-12,i,-4,3,-1,-4,
Cc1cc(NC(=O)c2ccc(C)c([N+](=O)[O-])c2)no1,.,8,10,i,-11,-8,1,0,
CCCCN(C(=O)CSCc1c(C)noc1C)c1c(N)n(CCC)c(=O)[nH]c1=O,-2,1,3,i,3,-9,1,4,
Cc1cc(NC(=O)c2cccc(C)c2[N+](=O)[O-])no1,-1,.,1,i,7,-4,0,0,
COc1cccc(NC(=S)N2CCN(S(=O)(=O)c3ccccc3)CC2)c1,-12,-10,-16,i,2,6,-3,0,
CC(C)Cn1c(Br)nc2c1c(=O)n(CCC#N)c(=O)n2C,-13,16,4,i,-2,.,0,-6,
CCN(CC)S(=O)(=O)c1cccc(NC2=NCCCCC2)c1,-7,3,2,i,-3,-14,-1,4,
COc1cc(N=Cc2c(O)[nH]c3ccccc23)cc(OC)c1OC,7,19,-13,i,1,.,-6,-6,
COc1ccc(OC)c(C(=O)N(C)C2CCCN(Cc3ccccc3F)C2)c1 (stereo not drawn),-10,-7,-6,i,2,-2,-1,0,
CC(O)CNCCNCc1c(OCc2ccccc2)ccc2ccccc12 (stereo not drawn),.,13,-11,i,0,.,2,-4,
O=C(O)CSc1c2c(nc3cc(C(=O)N4CCOCC4)ccc13)CCCC2,-13,-16,1,i,12,3,-8,2,
c1cc(C(c2nnnn2C2CCCC2)N2CCOCC2)ccn1 (stereo not drawn),-1,3,12,i,6,-13,0,-2,
COc1ccc(NC(=O)C(Br)C(C)C)cc1 (stereo not drawn),.,0,-4,i,-2,-1,1,1,
COc1ccc(NC(=O)COC(=O)c2cccc(S(=O)(=O)N(C)C)c2)cc1,-9,.,0,.,-2,0,3,0,
COc1ccc(-c2nn(-c3ccccc3)cc2C(=O)NC(=S)Nc2cc(Cl)ccc2Cl)cc1,.,-4,-2,i,18,4,3,0,
CCOC(=O)c1sc(N(Cc2ccccc2)C(=O)CN2C(=O)CN(C)C2=O)nc1C,7,2,4,i,-4,.,-3,2,
CN(Cc1ccco1)c1ncnc2ccc(-c3ccc4c(c3)OCO4)cc12,-9,23,.,.,.,.,-2,-4,
COc1ccc(-c2nc(CS(=O)CC(=O)NC3CCCCCC3)c(C)o2)cc1 (stereo not drawn),.,-16,-4,i,-9,9,-1,1,

# Quoted at random: three compounds from above.
SMILES,Yeast UUG start,CSC inhib,eIF4H FP inh,Rce1 inh,PABP FP inh,Env fusion inh,MT1-MMP act inh,MT1-MMP act inh RFP,others
CC(C)=C(NC(=O)c1ccccc1)C(=O)Nc1cccc(C)c1,-2,-7,-1,i,5,-28,0,3,
COc1cc(-c2cc3nc4ccccc4n3c(N)c2C#N)cc(OC)c1OC,.,26,-6,i,-4,17,2,8,
O=C(Nc1cccc(C(F)(F)F)c1)Nc1ccc2[nH]c(=O)[nH]c2c1,-21,-6,-4,i,2,11,4,0,

# Other records:
SMILES,Yeast UUG start,CSC inhib,eIF4H FP inh,Rce1 inh,PABP FP inh,Env fusion inh,MT1-MMP act inh,MT1-MMP act inh RFP,others
Cc1ccc(NC(=O)C(C)C(=O)Nc2ccc(C)cc2)cc1,.,-9,-3,i,-3,-8,4,6,
COc1cccc(C=NNc2ccc([N+](=O)[O-])cn2)c1OC,-14,.,.,.,.,-51,1,0,
COc1ccc(C(CNC(=O)c2ccc(-c3ccccc3Cl)o2)N2CCCC2)cc1 (stereo not drawn),-12,.,.,.,.,-8,2,0,
CN(C)c1ccc(S(=O)(=O)NCC(=O)NCC2CCCCC2)cc1[N+](=O)[O-],1,.,3,i,13,19,1,1,
Cc1ccc(S(=O)(=O)N2CCN(C(=O)CSc3nnnn3C)CC2)c(C)c1,.,-9,-13,i,-1,-4,-2,3,
Cn1c2ccccc2c(=O)c2ccc(NCc3ccc4c(c3)OCO4)cc21,-20,.,.,.,.,-24,-7,2,
Cc1cc(-c2nnc(SCC(=O)Nc3ccc(F)c(F)c3)n2N)n[nH]1,-21,-5,1,i,1,-13,2,1,

# From PubChem BioAssay
